Screens (PubChem BioAssay)
HIV TAR-Tat = HIV-1 TAR-Tat binding disruption | HIV-1 TAR RNA, Tat peptide displacement FRET; stronger effect = higher value | z-score (test concentration not listed) | actives 0.6% (n = 100,000) | AID 1259389;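 also: score is relative to mean and SD of negative controls; some compounds called inactive have numbers as strong as hits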
CDC25B-CDK2 inh = human CDC25B-CDK2/CyclinA binding inhibition | HTRF CDC25B-CDK2/CyclinA binding, anti-His/anti-Flag; stronger effect = higher value | z-score (no concentration beside the values) | actives 0.72% (n = 94,000);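 also: score is relative to mean and SD of negative controls; strong numbers were not always called active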
Starred values were filed as active, the others as inactive; / = no result given.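 The calls were made as follows: active = z-score from 3 up in half or more of its runs; inactive = the rest.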

SMILES	HIV TAR-Tat	CDC25B-CDK2 inh
O=C(Nc1c(C(=O)N2CCN(c3ccccc3F)CC2)oc2ccccc12)C1CCCC1	1	/
O=C1CC(c2cccc(Br)c2)c2cc3c(cc2N1)CCC3 (configuration not stated)	0.56	-1.9
O=C(O)CCC(=O)N1c2ccccc2NC2=C(C(=O)CC(c3ccccc3)C2)C1c1ccccc1F (configuration not stated)	2.5	-1.1
CCN(CC)CCNC(=O)CCCn1nc(C)n2c(cc3oc(C)cc32)c1=O	-1.3	-0.82
Cc1nn(CC(=O)NCCCN2CCCC2)c(=O)c2c(-n3cccc3)n(-c3ccc(Cl)cc3)nc12	0.36	/
O=C(NC1CCCCC1)N1CCCC1c1ccco1 (configuration not stated)	1.3	-0.6
CCCNC(=O)Cn1c2cc(OC)c(OC)cc2c2nc(=O)cc(C)n21	-1.7	-0.96
COc1ccc(C2C(C#N)=C(N)Oc3n[nH]c(-c4ccc5c(c4)OCO5)c32)cc1O (configuration not stated)	/	-1
CCCCOC(C)n1cc(F)c(=O)[nH]c1=O (configuration not stated)	3	-1.2
Clc1ccc(-c2noc(CN3CCC(Cc4ccccc4)CC3)n2)cc1	0.48	-0.49
COc1ccc(SCCC(=O)NNS(=O)(=O)c2ccc(-c3ccccn3)s2)cc1	/	-0.77
Cc1ccc(-c2c(NCCC3=CCCCC3)c(=O)c2=O)cc1	1	/
Cc1ccc(-c2nnc(SCCC(=O)O)o2)cc1	-0.26	-1.7
CN(C)c1ccc(CN(C(=O)c2cc(=O)c3ccccc3o2)C2CCS(=O)(=O)C2)cc1 (configuration not stated)	2.4	2.2
O=C(Nc1ccc(F)c(Cl)c1)c1cnn(-c2ccc(Cl)cc2)c1C1CCNCC1	1.3	/
Cn1c(=O)c2c(nc(CN3CCOCC3)n2CCc2ccccc2)n(C)c1=O	-0.07	-2.1
Cc1ccc(CNc2ccc(Cl)nn2)cc1	0.66	-2
CC(CC(=O)NCc1cccs1)CC1=NS(=O)(=O)c2ccccc2N1 (configuration not stated)	2	/
CCOc1ccc(-c2nn3cnnc3s2)cc1	1.2	-1.1
O=C(NCCN1CCOCC1)c1ccc(N2CCSc3ncccc32)s1	0.55	/

6 of the compounds above, bar-delimited.
canonical_smiles | HIV TAR-Tat | CDC25B-CDK2 inh
O=C1CC(c2cccc(Br)c2)c2cc3c(cc2N1)CCC3 (configuration not stated) | 0.56 | -1.9
COc1ccc(SCCC(=O)NNS(=O)(=O)c2ccc(-c3ccccn3)s2)cc1 | / | -0.77
Cc1ccc(-c2nnc(SCCC(=O)O)o2)cc1 | -0.26 | -1.7
Cc1nn(CC(=O)NCCCN2CCCC2)c(=O)c2c(-n3cccc3)n(-c3ccc(Cl)cc3)nc12 | 0.36 | /
O=C(Nc1c(C(=O)N2CCN(c3ccccc3F)CC2)oc2ccccc12)C1CCCC1 | 1 | /
COc1ccc(C2C(C#N)=C(N)Oc3n[nH]c(-c4ccc5c(c4)OCO5)c32)cc1O (configuration not stated) | / | -1

The results go on:
SMILES	HIV TAR-Tat	CDC25B-CDK2 inh
CC1=C(C(=O)OCC2CCCO2)C(c2ccc(N(C)C)cc2)C2=C(CCCC2=O)N1 (configuration not stated)	0.45	0.23
CCN(CC)CCNC(=O)c1c(O)nc2c(C)cccn2c1=O	-0.03	-1.2
O=C(CSc1nc(-c2ccccc2F)nc2cc(=O)[nH]n12)Nc1ccc2c(c1)OCO2	1.4	/
CS(=O)(=O)Nc1ccc(-c2noc(COc3ccc(F)cc3)n2)cc1	0.86	/
O=C1C2=C(c3cc(O)ccc3OCc3ccccc3)CCCN2C(=O)CN1CCc1ccccc1	/	-1.2
C=CC[n+]1ccc(/C=C2\Sc3ccccc3N2C)c2ccccc21	-4.4	-2
COc1ccc(CN2CCN(Cc3cccc4ccccc34)CC2)c(OC)c1	-0.05	2.6
CCc1cc2c(=O)c(-c3nc4ccccc4[nH]3)coc2c(CN2CCC(C)CC2)c1O	1.2	-1.8
NC(=O)Nc1ccc2[nH]ncc2c1	/	-1.3
CC(C)c1ccc(S(=O)(=O)Nc2ccc3c(c2)oc(=O)n3C)cc1	0.69	/
Cc1nc2sccn2c(=O)c1S(=O)(=O)NCC1CCN(Cc2ccc(Cl)cc2)CC1	-0.43	/
O=C(NCc1ccc(F)cc1)C(=O)NCC(c1ccco1)S(=O)(=O)c1cccs1 (configuration not stated)	1	/
Cc1nn(-c2nncc(-c3ccccc3)n2)c2c1C(c1ccc(O)cc1)CC(=O)N2 (configuration not stated)	0.3	-1.7
Cc1nn(C)cc1CNC(=O)c1nn2c(c1Cl)NC(c1cccs1)CC2C(F)(F)F (configuration not stated)	-0.24	-1.2
CCOC(=O)c1sc2ncn(CC(N)=O)c(=O)c2c1C	/	-0.04
COc1cc(OC)c(C2SCCN2S(=O)(=O)c2ccc(C)cc2)cc1OC (configuration not stated)	/	0.57
C=C(C)C(=O)Oc1c2ccccc2cc2ccccc12	/	-2
O=c1[nH]c2cc3c(cc2c(=O)n1Cc1nc(-c2cccc(Cl)c2)no1)OCO3	-0.31	/
Cn1ncc2c(Nc3ccccc3)nc(NCCc3ccccc3)nc21	-0.3	/
COC(=O)C1Nc2ccccc2S(=O)(=O)N1Cc1ccc(F)cc1 (configuration not stated)	-0.5	-1.3
CN(Cc1ccccc1)C(=O)CSc1nnc(-c2cc3ccccc3n2C)o1	2.7	-0.86
Cc1ccc(C2C3=C(CC(C)(C)CC3=O)OC3=C2C(=O)CC(C)(C)C3)o1	/	0.73
Cc1ccc(NC(=O)C(=O)NCc2ccc(/C=c3/sc4n(c3=O)CCCN=4)o2)cc1	/	-0.48
CCN1C(=O)c2cc3ccccc3n2CC1(C)C(=O)NCC(=O)NCc1ccc(C)o1 (configuration not stated)	-0.13	/
COc1ccccc1-c1c(C#N)c(N)c(C#N)c2c1CCCC2	/	-3.1
CCCCNC(=O)NNC(=O)c1cccn1-c1ccc(F)cc1	/	-1.6
Cc1c(SCCO)c(=O)[nH]c2cc3c(cc12)OCO3	/	-0.69
CC1=C(C(=O)OC2CCCCC2)C(c2cccnc2)C2=C(CCCC2=O)N1 (configuration not stated)	2.4	-0.12
CCOc1ccc(/C(O)=C2\C(=O)C(=O)N(CCN(C)C)C2c2ccc(OC)cc2)cc1C (configuration not stated)	26	-2.1
CCOC(=O)c1csc(-n2cccc2)n1	/	-1.5
CN1C(=O)C2(c3ccccc31)c1c(oc3ccccc3c1=O)C(=O)N2CCCO (configuration not stated)	2.5	-0.44
CCCOc1ccc(N2C(=O)CC(NCc3ccco3)C2=O)cc1 (configuration not stated)	/	-0.44
CCc1cc2c(cc3c(=O)n(CC(=O)NCCCN4CCOCC4)ncn32)s1	-1.1	0.3
CC(C)(C)c1ccc(C2c3c(-c4ccccc4O)n[nH]c3C(=O)N2CCO)cc1 (configuration not stated)	1.7	-2.4
Cc1ccc(S(=O)(=O)Nc2ccccc2SCc2cc(=O)n3nc(C4CC4)sc3n2)cc1	2.1	/
Cc1cc2n(n1)CCC(=O)N2CC(=O)NCCN(C)C1CCCCC1	1.3	/
COc1cccc(-c2cc(OC(=O)c3ccco3)cc3sc(=O)oc23)c1	-0.33	0.12
O=C(Nc1sc2c(c1C(=O)O)CCCCC2)c1ccco1	1.2	-1.1
CCC(C)Nc1ncnc2c1cnn2-c1ccc(C)cc1 (configuration not stated)	-0.62	/
O=C(C1CCCN1S(=O)(=O)c1cccc2nsnc12)N1CCCCCC1 (configuration not stated)	/	0.56
CC(=O)N1N=C(c2cccc(Br)c2)OC1Cn1nc(C)cc1C (configuration not stated)	1.1	/
CCCNC(=O)Cn1cnc2sc(C(=O)N3CCN(C(=O)OCC)CC3)c(C)c2c1=O	1.8	/
Cc1cc(C)c2c(=O)cc(C(=O)NCC(c3ccc(C)o3)N3CCN(C)CC3)oc2c1 (configuration not stated)	-2	0.22
O=C1CCCC2=C1C(c1ccco1)N(C(=O)NC1CCCC1)c1ccccc1N2 (configuration not stated)	1.5	/
Cc1ccc(-c2nc(SCc3cc(=O)n4oc(C)cc4n3)n[nH]2)cc1	-0.39	/
CCN(CC)C(=O)CSc1nc2nc(C)ccc2o1	1.3	/
CCN(CC)C(=O)CSc1nnc(-c2nonc2NC(C)=O)n1CC	1.5	0.25
Cc1cccc(C)c1OCc1cc(=O)n2c(C)csc2n1	-0.33	1.1
O=S(=O)(c1cc(C(F)(F)F)ccn1)c1cccs1	/	-1.3
Cc1ccc(F)cc1NC1OC(=O)c2ccccc21 (configuration not stated)	0.42	-0.8
O=C(CSc1nc2ccccc2nc1N1CCOCC1)Nc1cccc(Br)c1	-0.45	-1.9
CCOC(=O)C1CN(Cc2ccco2)C(=O)C1=O (configuration not stated)	2.2	-2
CCOC(=O)c1nc(Nc2ccccc2F)c2c(C)noc2n1	0.42	/
Cc1nn(C)c(C)c1CNC(=O)CN1CCSc2ccccc21	1.6	/
O=C1OC(c2ccccc2)Cc2cc(C(=O)N3CCCc4ccccc43)ccc21 (configuration not stated)	-1.9	-0.42
Cc1ccc2c(=O)c(C(=O)c3ccc(Cl)cc3)cn(CC(=O)NCC3CCCO3)c2n1 (configuration not stated)	-1.6	/
Brc1ccc(-c2noc(-c3cc(C4CC4)[nH]n3)n2)cc1	-0.58	/
COc1ccc(C(=O)N2CCC(c3ccccc3OC)CC2)cc1	/	-0.81
Cc1ccc(F)cc1Nc1nc2ccccc2n2nnnc12	0.42	0.41
O=C(Cn1c(=O)c2cccn2c2ccc(F)cc21)NC1CCCCC1	-1.2	/
Later entries.
SMILES	HIV TAR-Tat	CDC25B-CDK2 inh
CCc1ccc(-n2nnnc2SCC(=O)NCCSCc2ccco2)cc1	/	-1.7
C[C@@H]1C(=O)O[C@H]2[C@H](O)[C@@]34C5C[C@@H](C(C)(C)C)[C@]36[C@H](OC(=O)[C@@H]6O)OC4(C(=O)O5)[C@@]12O (some centres not stated)	2.1	/
CCCC(NS(=O)(=O)c1cccc2nsnc12)C(=O)O (configuration not stated)	0.41	-1.6
Cc1ccsc1CCNC(=O)Cn1cnc(S(=O)(=O)N2CCCCC2)c1	0.29	/
O=C1c2cccc3c(N4CCCCC4)ccc(c23)C(=O)N1c1ccccc1	1	-1
COc1ccc(Br)cc1C1Nc2c(C(=O)O)cccc2C2C3CCC(C3)C12 (configuration not stated)	0.39	-0.52
O=C1O[C@@H]2C[C@H]3C[C@@H]2[C@@H]1[C@H]3C(=O)Nc1cccc(C(=O)N2CCN(c3ccccc3F)CC2)c1	-1.3	-2.9
O=C(Nc1cccc(F)c1)C1=Cc2cc(Br)ccc2OC1	2	/
Cc1onc(-c2c(Cl)cccc2Cl)c1COC(=O)c1ccc([N+](=O)[O-])o1	/	-2.2
O=C(NCCCN1CCCC1=O)c1cc2c(Cl)nc3ccccc3c2s1	/	-2.2
CCc1nnc(NC(=O)C2CCCN(c3nc4cccnc4s3)C2)s1 (configuration not stated)	-0.21	/
CS(=O)(=O)N1CCC(c2nc3ccccc3s2)CC1	0.73	0.21
CC1CC(N(C(=O)c2cccs2)c2ccccc2)c2ccccc2N1C(=O)c1ccco1 (configuration not stated)	1.6	-1
O=C(O)CSc1n[nH]c(-c2ccccc2)n1	2.5	1.3
O=S(=O)(NCCc1csc(-c2ccc(Cl)cc2)n1)c1cccc(F)c1	0.77	/
CC1=C(C(=O)NCCCN(C)C2CCCCC2)C2(CCCCC2)OC1=O	1.1	/
Cc1ccc(Nc2ncnc3onc(C)c23)c(C)c1	0.56	/
O=[N+]([O-])c1ccc(OCCO)c([N+](=O)[O-])c1	/	0.03
CCC(C)NC(=O)c1ccc2c(=O)n(C3CC3)c3n[nH]c(=O)n3c2c1 (configuration not stated)	1	-1.9
Cc1nc(NCC(C)C)c2sc3nc4c(cc3c2n1)COC(C)(C)C4	-1.1	-1.7

Quoted at random: 5 entries already listed, in no set order.
SMILES	HIV TAR-Tat	CDC25B-CDK2 inh
CC(C)c1ccc(S(=O)(=O)Nc2ccc3c(c2)oc(=O)n3C)cc1	0.69	/
CC1=C(C(=O)NCCCN(C)C2CCCCC2)C2(CCCCC2)OC1=O	1.1	/
CCCNC(=O)Cn1c2cc(OC)c(OC)cc2c2nc(=O)cc(C)n21	-1.7	-0.96
Cc1ccc(-c2c(NCCC3=CCCCC3)c(=O)c2=O)cc1	1	/
CCc1nnc(NC(=O)C2CCCN(c3nc4cccnc4s3)C2)s1 (configuration not stated)	-0.21	/

(continued)
SMILES	HIV TAR-Tat	CDC25B-CDK2 inh
Cc1cccc(N2CCN(c3nn4nnnc4c4ccccc34)CC2)c1C	-0.14	/
CCSc1ncc(Cl)c(C(=O)Nc2sc3c(c2C(=O)NCc2cccnc2)CCC3)n1	0.91	-1.4
O=S(=O)(CCN(Cc1cccs1)S(=O)(=O)c1ccc(Cl)cc1)c1ccc(Cl)cc1	/	-1.6
O=c1nc2c(-c3ccccc3)n[nH]n2c2ccccc12	2.5	/
COc1ccc(OC)c(NC(=O)c2ccccc2NC(=O)c2ccccc2)c1	/	-2.1
Brc1ccc([C@H]2CN3CCSC3=N2)cc1	/	0.98
Cc1nc(-c2cc3ccccc3[nH]c2=O)no1	2.9	-0.44
Cc1nc([N+](=O)[O-])cn1Cc1ccc(F)cc1	/	-3.1
Cc1cc(C)cc(NC2c3ncccc3C(=O)N2c2ccccc2)c1 (configuration not stated)	-1.2	/
C=CCN1C(C(=O)c2ccccc2)=C(OC(=O)C(C)C)c2ccccc2S1(=O)=O	1.8	-0.75
COc1ccc(-c2n[nH]c(=S)n2-c2ccc(C)cc2)cc1	/	-0.85
c1ccc(-c2nc(-c3cccnc3)n[nH]2)nc1	/	-0.54
Cc1ccccc1-c1nc(SCC(=O)Nc2nnc(CC(C)C)s2)n2[nH]c(=O)cc2n1	0.08	/
